Source: PubChem (National Center for Advancing Translational Sciences (NCATS))
Six1-Eya2 blk = inhibitors of human Six1/Eya2 interaction; 360,000 tested, 0.56% active; activity change, % (concentration not given with the values); AlphaScreen GST-Six1/His-Eya2 binding, biochemical; hits give low values; control for the full effect not named in the record; Q15475+O00167; in the data active = activity change below about -65%; inconclusive = about -30% to -65%; inactive = above about -30%; further: on the % scale 0 is the no-effect control and ±100 the full control effect
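AlphaScreen with GST-Six1 and His-Eya2 (5X mix: 250 nM and 500 nM), glutathione donor and nickel acceptor beads; buffer 50 mM Tris pH 8.0, 300 mM NaCl, 1 mM TCEP; 1 h at 37 C in the dark.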
D2 PAM = positive allosteric modulators of human D2 dopamine receptor | P14416 | DiscoveRx D2 beta-arrestin cells, luminescence, 90 min; 100% = 57 uM dopamine signal | potentiation, % (no concentration beside the values) | 360,000 tested, 0.23% active | AID 624464; active = potentiation of 50% or more; inconclusive = 30% to 50%; inactive = 30% or less;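 further: compound concentration not given in the record; tested on top of an EC20 dose of dopamine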
Target sequence (P14416 whole entry, looked up): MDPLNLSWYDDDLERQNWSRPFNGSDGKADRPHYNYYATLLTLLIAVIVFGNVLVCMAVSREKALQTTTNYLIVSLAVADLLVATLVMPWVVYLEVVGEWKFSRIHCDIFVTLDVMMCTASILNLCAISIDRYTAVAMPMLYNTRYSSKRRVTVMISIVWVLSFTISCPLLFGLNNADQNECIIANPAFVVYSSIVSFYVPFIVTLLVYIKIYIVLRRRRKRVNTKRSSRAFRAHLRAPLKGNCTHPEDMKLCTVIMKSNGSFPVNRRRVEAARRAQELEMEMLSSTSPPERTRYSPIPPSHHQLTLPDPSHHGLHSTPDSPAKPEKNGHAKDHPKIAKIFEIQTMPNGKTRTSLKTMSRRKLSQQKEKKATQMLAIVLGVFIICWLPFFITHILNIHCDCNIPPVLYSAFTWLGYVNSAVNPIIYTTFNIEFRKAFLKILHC
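PathHunter D2 cells, attached overnight at 37 deg C, received compound in DMSO plus dopamine at EC20 (50 nM final) for 90 min at 37 deg C. Beta-arrestin recruitment was read as luminescence after 1 h with detection reagent at ambient temperature.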
TRPML1 agonist = activates the human TRPML1 channel; TRPML1-expressing cells, Ca2+ dye fluorescence, FDSS; host cell line not named in the record; reference of the full effect not given here; 410,000 tested, 0.12% active; activation, % (no concentration beside the values); Q9GZU1; in the data active = activation above about 50%; inconclusive = about 30% to 50%; inactive = below about 30%; further: 0% is about no effect; the text of the record puts the active cut at 80%
Target sequence (Q9GZU1 whole entry, looked up): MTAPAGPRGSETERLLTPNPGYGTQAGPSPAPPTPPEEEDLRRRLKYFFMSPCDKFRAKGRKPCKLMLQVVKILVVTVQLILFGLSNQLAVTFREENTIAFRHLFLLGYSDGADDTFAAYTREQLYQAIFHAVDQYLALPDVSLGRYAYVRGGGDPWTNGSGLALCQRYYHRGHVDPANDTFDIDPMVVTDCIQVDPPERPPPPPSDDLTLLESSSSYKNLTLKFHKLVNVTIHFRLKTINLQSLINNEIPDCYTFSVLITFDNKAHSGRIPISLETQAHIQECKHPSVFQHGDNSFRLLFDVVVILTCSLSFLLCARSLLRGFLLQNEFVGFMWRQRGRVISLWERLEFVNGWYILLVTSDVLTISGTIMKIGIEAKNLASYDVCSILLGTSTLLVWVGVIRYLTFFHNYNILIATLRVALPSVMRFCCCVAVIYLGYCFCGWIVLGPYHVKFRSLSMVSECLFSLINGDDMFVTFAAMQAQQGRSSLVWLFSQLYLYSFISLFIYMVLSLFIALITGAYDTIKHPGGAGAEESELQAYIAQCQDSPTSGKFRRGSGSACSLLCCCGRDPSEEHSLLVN
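In this qHTS format, compounds were pin-transferred onto Ca8-dye-loaded TRPML1-DL cells induced with Tet overnight, and intracellular Ca2+ fluorescence was recorded kinetically for 110 s after a 10 s baseline. A subsequent 4uM final 54-4 (EC80) addition followed by a second 110 s read served as the antagonist phase.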
D2 ag = agonists of human D2 dopamine receptor (beta-arrestin). P14416. DiscoveRx PathHunter D2 beta-arrestin, luminescence, 90 min; 100% = 57 uM dopamine signal. activation, % (concentration not given with the values). 360,000 tested, 0.084% active; in the data active = activation above about 40%; inconclusive = about 15% to 40%; inactive = below about 15%; further: compound concentration not given in the record; the text of the record calls up to 30% inactive
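DiscoveRx PathHunter D2 beta-arrestin cells (2,100/well) attached overnight, then compound-stimulated 90 min at 37 C in HBSS/10 mM HEPES/0.1% Tween-20 buffer; beta-galactosidase complementation read by luminescence after 1 h at ambient temperature. Dopamine 57 uM final (EC100) as control.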
PINK1 modulator = PINK1 expression modulation | Potency, µM (titrated, usually from 76.6 µM), for the others: at the highest dose activation (PINK1 increase), most hits filed as activators | 410,000 tested, 0.2% active | PINK1 immunofluorescence, high-content cytometry, 24 h; active = well fitted activation curve with a large enough effect; inconclusive = small, poorly fitted or top-dose-only effect; inactive = flat fitted curve, though single readings scatter; cell line not stated here;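 further: potency means the concentration at half of the fitted maximal effect; % of control where 0% means no effect; nearly all actives have a fitted effect of over 65% in size; a mitochondrial uncoupler was the plate control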
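Readout is PINK1 immunofluorescence, quantified alongside mitochondrial, cell and nuclear markers by laser-scanning microplate cytometry. Cells from a stable line were exposed to compound titrations (5 concentrations) for 24 hours, with CCCP controls.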
TRPML1 blocker = inhibitors of human TRPML1 channel; Q9GZU1; AID 624415; TRPML1-inducible cells, Ca2+ dye fluorescence, FDSS; hits give low values; inhibition of EC80 agonist-evoked calcium signal; 390,000 tested, 0.02% active; activity change, negative = inhibition, % (test concentration not listed); in the data active means activity change below about -50%; inconclusive means about -30% to -50%; inactive means above about -30%;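 further: stimulus is agonist 54-4 at its EC80 concentration; on the % scale 0 is the no-effect control and ±100 the full control effect; compound concentration not given in the record; the text of the record puts the active cut at -80%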
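TRPML1-DL cells, Tet-induced overnight (~16 h, 37 °C) at 1,500 cells/well, were loaded with Ca8 no-wash dye plus quencher for 45-90 min at room temperature. Compounds were pinned during FDSS kinetic reading; agonist 54-4 at EC80 (4 uM final) then added.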
An asterisk follows results filed as active; u = inconclusive; x = no result given; & = joins results of further samples; [ ] = remark or other dose.

Under each structure – TRPML1 blocker	TRPML1 agonist	D2 ag	Six1-Eya2 blk	PINK1 modulator	D2 PAM
O=C(OCC(=O)N1CCN(c2ccccc2)CC1)c1ccc(O)cc1O
 : -17	1.3	-4.0	4	0.5%	-7
C=CCN(c1cccc(C(F)(F)F)c1)S(=O)(=O)c1cccc(C(=O)OCC(=O)NC(N)=O)c1
 : 3	1.7	1.5	10	-1.8%	2
COc1cc(NC(=O)c2cccs2)c(OC)cc1NC(=O)CCC(=O)Nc1ccc2ncccc2c1
 : 30	1.9	4.0	-69*	0.5%	6
COc1ccccc1NC(=O)C1=C(C)Nc2c(C(=O)Nc3cccc(C)c3)cnn2C1c1ccccc1Cl (configuration not stated)
 : 15	3.0	x	x	-2.6%	x
COc1ccc(NC2CCCN(C(=O)c3cn(C)c4ccccc34)C2)cc1 (configuration not stated)
 : -5	-0.9	2.2	-10	-0.6%	-5
O=C(CSc1cn(CCNC(=O)c2ccccc2)c2ccccc12)NCc1ccco1
 : -3	1.3	-1.0	-2	2.6%	-3
CC(=O)Oc1ccccc1C1C[C@]2(C)CC(=O)NC2N1C(C)=O (some centres not stated)
 : -2	0.3	-2.9	2	1.5%	-1
O=C(Nc1ccc2nc3n(c(=O)c2c1)CCCC3)c1cncc(Br)c1
 : -3	-0.2	2.1	u	-0.4%	-4
CCOc1ccc(C(=O)Nc2cccc(C)n2)cc1
 : -3	-1.0	-1.5	7	1.0%	-10
Cc1cccc(-c2cc(C(=O)Nc3c(C)n(C)n(-c4ccccc4)c3=O)c3ccccc3n2)c1
 : 33	-0.9	3.5	-2	4.5%	-10
Cc1nc(-c2ccc(F)cc2)c(CC(=O)N2CCN(S(=O)(=O)c3ccc(F)cc3)CC2)s1
 : -7	1.7	-7.1	-1	2.7%	-2
CCNC(=S)N1CCC(C(O)(c2ccccc2)c2ccccc2)CC1
 : 11	0.7	6.6	2	1.4%	-6
COc1ccc(/C=N/NC(=O)CN(Cc2ccccc2)S(=O)(=O)c2ccc3c(c2)OCCO3)cc1
 : -11	0.0	3.2	-65*	0.8%	-4
O=C1c2[nH]nc(-c3ccccc3O)c2C(c2cccc(Cl)c2)N1Cc1ccco1 (configuration not stated)
 : 46	3.1	-1.0	-24	3.4%[38.3 µM]	-8
CC(C)CN1C(=O)C(=O)N(CC(=O)NC(C)CCc2ccccc2)C1=O (configuration not stated)
 : 14	2.2	4.0	3	-1.9%	19
Cc1cccnc1NC(=O)Nc1cccs1
 : -5	3.2	-2.0	-5	-2.1%	-8
O=C(Nc1nc(-c2cc(F)ccc2F)cs1)c1cccc(N2C(=O)CCC2=O)c1
 : 33	-0.2	-0.3	1	5.8%	13
COc1cccc(/C=C2\SC(=S)N(c3cccnc3)C2=O)c1OC
 : -1	-0.4	0.3	-10	1.0%	-8
Cc1cc(C)c(NC(=O)CN2C(=O)NC(CCc3ccccc3)C2=O)c(C)c1 (configuration not stated)
 : 4	-1.5	-3.0	6	2.2%	-3
COCCn1c(N2CCN(c3ccc(OC)cc3)CC2)nc2c1c(=O)n(C)c(=O)n2C
 : -7	0.2	-2.1	0	1.7%[38.3 µM]	-3
COc1ccc(C(CNC(=O)c2ccc(NS(=O)(=O)c3ccc(F)c(C)c3)cc2)N2CCOCC2)cc1 (configuration not stated)
 : -11	-0.3	-3.9	-1	2.2%	-11
CC(=O)Nc1ccc(N(CC(=O)NCC2CCCO2)C(=O)CCC(=O)Nc2cc(C)on2)cc1 (configuration not stated)
 : 1	0.3	-0.3	-1	2.9%	-1
COc1ccc(C(=O)COC(=O)CCN=C2NS(=O)(=O)c3ccccc32)cc1OC
 : 5	-1.0	7.0	-6	-3.0%	2
CC(C)(C)c1sc(N)nc1-c1ccccc1
 : -6	0.9	-0.8	0	x	-1
NC(=O)c1nsc(C(=O)N(Cc2ccc(F)cc2)C(C(=O)NCC2CCCO2)c2ccc(F)cc2)c1N (configuration not stated)
 : -1	-0.9	-3.0	4	0.8%	-1
CC(c1ccon1)N(C)Cc1cn[nH]c1-c1ccc(-c2ccccc2)cc1 (configuration not stated)
 : 42	4.0	2.3	-3	-2.1%	-4
Cc1cccc(C)c1NC(=O)CSc1nc2ccccc2c2nc(CCc3c(C)n[nH]c3C)nn12
 : -4	0.2	x	x	2.4%	x
NC(c1csc(Nc2nncc3ccccc23)n1)c1ccccc1Cl (configuration not stated)
 : x	0.7	u	-2	3.0%	0
O=C(NCCc1nnc2ccc(N3CCCCCC3)nn12)c1ccccc1F
 : 12	-0.7	3.1	-9	1.6%	-18
CCC(=O)NC(C)C(c1cccs1)N1CCN(c2ccccc2)CC1 (configuration not stated)
 : -5	1.3	-3.3	-2	3.1%[38.3 µM]	-12
COc1cc(C2CC(=O)c3c(O)cc(O)cc3O2)ccc1O (configuration not stated)
 : x	x	-1.5	1	-0.5%	12
CCC(=O)Nc1nc2c(OC)ccc(OC)c2s1
 : 5	0.1	-2.1	-4	0.8%	-2
COc1cccc(N2CCN(C(=O)c3ccc(CS(=O)c4cccc(Cl)c4)o3)CC2)c1 (configuration not stated)
 : 7	-0.1	x	x	10.0%	x
Cc1cc(C(F)(F)F)nn1CC(=O)N1CCCCC1C (configuration not stated)
 : 15	0.3	-1.7	-1	-0.1%	-14
COc1ccc(/C=C(\C#N)C(=O)OCC(=O)N(C)C2CCS(=O)(=O)C2)cc1 (configuration not stated)
 : 8	0.1	-2.3	7	1.8%	12
Cc1noc(C)c1S(=O)(=O)NC1CCN(Cc2ccccc2)CC1
 : 22	0.4	-1.6	-1	0.6%	-1
CCC(C)N(C(=O)CSc1nc(-c2cccs2)nc2ccccc12)C1CCS(=O)(=O)C1 (configuration not stated)
 : 32	1.3	2.9	u	-1.7%	-8
CSc1cccc(CNC(=O)C2CCC(=O)N(CCc3ccccc3)C2)c1 (configuration not stated)
 : -9	0.1	-0.1	4	0.5%	-9
Cc1ccc(NC(=O)c2c3c(nc4ccccc24)CCC3)cc1
 : 9	-0.9	-3.8	-3	1.6%	2
CC(=O)N1CCc2cc(S(=O)(=O)NC(CC(C)C)C(=O)Nc3ccc4c(c3)OCCO4)ccc21 (configuration not stated)
 : -9	0.1	-0.3	-10	0.3%	-6

3 records drawn at random from those above:
Under each structure – TRPML1 blocker	TRPML1 agonist	D2 ag	Six1-Eya2 blk	PINK1 modulator	D2 PAM
CCC(=O)Nc1nc2c(OC)ccc(OC)c2s1
 : 5	0.1	-2.1	-4	0.8%	-2
COc1ccc(C(CNC(=O)c2ccc(NS(=O)(=O)c3ccc(F)c(C)c3)cc2)N2CCOCC2)cc1 (configuration not stated)
 : -11	-0.3	-3.9	-1	2.2%	-11
Cc1cc(C(F)(F)F)nn1CC(=O)N1CCCCC1C (configuration not stated)
 : 15	0.3	-1.7	-1	-0.1%	-14

Continued.
Under each structure – TRPML1 blocker	TRPML1 agonist	D2 ag	Six1-Eya2 blk	PINK1 modulator	D2 PAM
CCCCN1CC[C@H]2C=CC[C@@H](C(=O)Nc3ccccc3)[C@H]2C1=O
 : 17	-0.7&0.2	-2.8	1	0.7%	-3
OC[C@H]1O[C@H](OC[C@H]2OC(O)[C@H](O)[C@@H](O)[C@@H]2O)[C@H](O)[C@@H](O)[C@@H]1O (some centres not stated)
 : 4	-0.9	-2.9	0	-0.2%	12
CCCn1nnc(NC(=O)c2ccc(Br)o2)n1
 : 1	-0.3	-0.6	0	-1.6%	-7
CC(=O)Oc1c(S(=O)(=O)c2ccc(C)cc2)c(C)nn1C(C)(C)C
 : 4	-0.8	-4.3	4	1.4%	-3
CCCCNC(=O)OC1CC2CC1[C@H]1CCCCN1C2=O (some centres not stated)
 : x	-0.8	x	-3	3.4%	x
COc1ccc(-n2c(SCC(=O)Nc3cc(C)on3)nc3c(c2=O)SCC3)cc1
 : 8	-0.1	-1.7	1	4.0%	-3
COC(=O)c1ccccc1NC(=O)c1ccc(-c2cccc(Cl)c2)o1
 : 37	-0.1	-2.3	10	12%	-7
Cc1ccc(C(=O)O)cc1-c1ccc(C=C2C(=O)c3ccccc3C2=O)o1
 : 30	7.3	2.8	-18	-0.3%	0
Cc1ccc2c(Cl)c(C(=O)NCCCn3ccnc3)sc2c1
 : 11	0.2	-2.5	-12	-1.0%	-15
OCCN1CCOCCN(CCO)CCN(CCO)CC1
 : 9	0.5	-1.2	-3	-1.1%	-14
O=S(=O)(NCc1csc(-c2cccs2)n1)c1cccs1
 : 9	1.0	4.1	8	0.3%	-1
CC(=O)N1CCN(C(=O)c2ccc(NS(=O)(=O)c3ccc(Cl)c(Cl)c3)cc2)CC1
 : 3	0.7	-4.2	0	-1.7%	-24
Cc1ccc(OCCNC(=O)[C@H]2O[C@@H](n3ccc(=O)[nH]c3=O)[C@H](O)[C@@H]2O)cc1C
 : x	-0.6	-2.6	1	0.7%	3
O=C(c1cnn2cccnc12)N1CCN(Cc2ccc3c(c2)OCO3)CC1
 : 5	0.0	-1.7	-2	x	-5
O=[N+]([O-])c1cccc(S(=O)(=O)Nc2ccc3cn[nH]c3c2)c1
 : 18	2.4	3.9	-8	-0.1%	u
Nc1nc(-c2ccccc2)nn1C(=O)Cc1ccccc1
 : -10	-0.3	-4.5	10	-2.6%	-20
Cc1cccc(OCc2occc2C(=O)Nc2cccc(-n3cnnn3)c2)c1
 : 1	-0.8	0.1	-4	3.9%	-18
CC1=C/C(=N\NC(=S)NCCc2ccccc2)CC(C)(C)C1
 : 20	2.6	-4.8	-24	2.7%	-12
Cc1csc(Nc2ccc(C(=O)O)cc2)n1
 : 25	-0.9	-5.1	4	1.5%	-15
O=C(c1ccco1)N1CCN(C(=O)c2cc3c(s2)-c2ccccc2OC3)CC1
 : -1	-0.8	1.4	0	1.5%	-1
Cc1ccc(N(C)S(=O)(=O)c2nnc(NC(=O)c3ccco3)s2)cc1
 : -18&-29	-0.6&3.3	-9.6	-1	0.4%&-0.5%	-7
O=C(CSCc1ccccc1)Nc1ccccc1
 : -14	-1.3	-2.0	3	-1.0%	-4
O=C(Nc1ccc2c(c1)OCO2)C1CC(c2c(F)cccc2Cl)=NO1 (configuration not stated)
 : -7	-0.1	-0.4	1	x	1

7 entries already listed, ordered by the value under Six1-Eya2 blk, highest first.
SMILES	Six1-Eya2 blk
COC(=O)c1ccccc1NC(=O)c1ccc(-c2cccc(Cl)c2)o1	10
CC(=O)Oc1c(S(=O)(=O)c2ccc(C)cc2)c(C)nn1C(C)(C)C	4
Cc1ccc(OCCNC(=O)[C@H]2O[C@@H](n3ccc(=O)[nH]c3=O)[C@H](O)[C@@H]2O)cc1C	1
Cc1ccc(N(C)S(=O)(=O)c2nnc(NC(=O)c3ccco3)s2)cc1	-1
OCCN1CCOCCN(CCO)CCN(CCO)CC1	-3
Cc1cccc(OCc2occc2C(=O)Nc2cccc(-n3cnnn3)c2)c1	-4
O=[N+]([O-])c1cccc(S(=O)(=O)Nc2ccc3cn[nH]c3c2)c1	-8
